Screens as filed in PubChem BioAssay.
HIV Env fusion: inhibitors of HIV Env-mediated cell fusion; 1.1% of 360,000 active; AID 651610; HeLa-JRFL Env/CEM21 cell fusion, luciferase; inhibition, % at 12.3 µM;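 active = mean replicate inhibition score of at least 50 and every replicate individually at or above 50; inconclusive = only one of the two criteria met; inactive = mean below 50 and not all replicates reaching 50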;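 also: 0% = plate neutral controls and 100% = maraviroc near 300 nM; one replicate is shown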
UUG fidelity: alters start codon recognition fidelity in yeast. S. cerevisiae UUG-firefly luciferase reporter, luminescence/redox ratio. activity score, % at 18.7 µM. 0.13% of 350,000 active. AID 602363;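 active = replicate mean at a twofold rise or more, about +100% in these data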;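 also: firefly luciferase made from a UUG start codon reports start codon fidelity; reporter light over untreated wells divided by growth signal over untreated wells; some hits fall short of that in this replicate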
Active calls of the source: *; ? = inconclusive; [ ] = dose if it differs, or a comment. Only part of the results is shown; count on the stated rates, not on these rows.

SMILES	HIV Env fusion	UUG fidelity
C[C@@H]1CCCCO[C@@H](CN(C)C(=O)Cc2ccccc2)[C@@H](C)CN([C@@H](C)CO)C(=O)c2cc(NC(=O)CCC(F)(F)F)ccc2O1	-5[16.7 µM]	15
C[C@H]1CN([C@@H](C)CO)C(=O)c2cccc(NC(=O)Nc3cccc4ccccc34)c2O[C@H]1CN(C)S(C)(=O)=O	-8[16.7 µM]	7
COCC(=O)Nc1ccc2c(c1)[C@@H]1C[C@H](CC(=O)NC3CCCCC3)O[C@H](CO)[C@@H]1O2	-4[16.7 µM]	107*
Cc1ccc(-c2cnc3c(c2)C(=O)N([C@H](C)CO)C[C@H](C)[C@H](CN(C)Cc2ccccc2C(=O)O)O3)cc1	3[16.7 µM]	17
C[C@@H](NC(=O)C[C@@H]1C=C[C@@H](NC(=O)C2CCOCC2)[C@H](CO)O1)c1ccccc1	1[16.7 µM]	-9
C[C@H](CO)N1C[C@H](C)[C@@H](CN(C)S(=O)(=O)c2ccc(Cl)cc2)Oc2ccc(NC(=O)C3CCCCC3)cc2C1=O	-32[16.7 µM]	-17
CCCN(C)C[C@H]1Oc2cc(C#CCC(C)C)ccc2S(=O)(=O)N([C@H](C)CO)C[C@H]1C	-29[16.7 µM]	-6
C[C@@H]1CN([C@H](C)CO)C(=O)c2cccc(NC(=O)Nc3ccccc3)c2O[C@H]1CN(C)S(=O)(=O)c1cn(C)cn1	23[16.7 µM]	-2
CC(=O)N(C)C[C@H]1Oc2ncc(C#Cc3ccc(F)cc3)cc2C(=O)N([C@@H](C)CO)C[C@H]1C	-13[16.7 µM]	0
CC(C)NC(=O)N(C)C[C@H]1Oc2c(NC(=O)C3CC3)cccc2C(=O)N([C@@H](C)CO)C[C@@H]1C	-7[16.7 µM]	-3
C[C@H](O)C#Cc1cnc2c(c1)C(=O)N([C@@H](C)CO)C[C@H](C)[C@H](CN(C)Cc1cncnc1)O2	5[16.7 µM]	-1
CC(=O)Nc1ccc2c(c1)C(=O)N(C)[C@H]1CC[C@@H](CC(=O)N3CCc4ccccc4C3)O[C@@H]1CO2	-3[16.7 µM]	-3
C[C@@H]1CN([C@H](C)CO)S(=O)(=O)c2ccc(C#C[C@@H](C)O)cc2O[C@@H]1CN(C)C(=O)C1CC1	-69[16.7 µM]	17
CCCNC(=O)N(C)C[C@H]1Oc2ncc(C3=CCCCC3)cc2C(=O)N([C@@H](C)CO)C[C@@H]1C	2[16.7 µM]	16
C[C@H]1CCCCO[C@@H](CN(C)C(=O)Nc2ccc(F)cc2)[C@@H](C)CN([C@@H](C)CO)C(=O)c2cc(NS(=O)(=O)c3ccccc3)ccc2O1	7[16.7 µM]	6
O=S(=O)(c1ccccc1)N1CCN(Cc2cccc(OCCO)c2)CC1	10[16.7 µM]	-11
COc1cccc(-c2ccc3c(c2)O[C@H](CN(C)CC2CC2)[C@H](C)CN([C@@H](C)CO)S3(=O)=O)c1	-22[16.7 µM]	-5
O=C(C[C@H]1CC[C@@H](NC(=O)c2cccnc2)[C@@H](CO)O1)NCc1ccncn1	-11[16.7 µM]	-11
COc1ccc(NC(=O)N[C@@H]2CC[C@H](CCNC(=O)CN3CCOCC3)O[C@@H]2CO)cc1	21[16.7 µM]	1
C[C@@H]1CN([C@@H](C)CO)C(=O)c2cc(NC(=O)Cc3ccccc3)ccc2O[C@@H](C)CCCCO[C@H]1CN(C)CC1CCCCC1	4[16.7 µM]	13
C[C@H]1CCCCO[C@H](CN(C)C(=O)Nc2ccccc2)[C@@H](C)CN([C@@H](C)CO)C(=O)c2cc(NC(=O)C3CCCCC3)ccc2O1	9[16.7 µM]	8
C[C@H](O)C#Cc1cnc2c(c1)C(=O)N([C@H](C)CO)C[C@H](C)[C@H](CN(C)C(=O)Nc1ccc(F)cc1)O2	2[16.7 µM]	14
C[C@H]1CN([C@@H](C)CO)C(=O)c2cc(NC(=O)Cn3cnnn3)ccc2O[C@H]1CN(C)C(=O)Nc1ccc(F)cc1	-5[16.7 µM]	4
C[C@@H]1CCCCO[C@H](CN(C)C(=O)Cc2ccccc2)[C@@H](C)CN([C@H](C)CO)C(=O)c2cc(NC(=O)CCC(F)(F)F)ccc2O1	-12[16.7 µM]	-5
C[C@H](CO)N1C[C@H](C)[C@@H](CN(C)C(=O)Nc2ccccc2)OCCCC[C@H](C)Oc2ccc(NC(=O)Nc3cccc4ccccc34)cc2C1=O	-19[16.7 µM]	-6
COC(=O)c1ccc([C@@H]2C=C(C(=O)N3CCN(Cc4ccc5c(c4)OCO5)CC3)O[C@H](OCc3ccc(CO)cc3)C2)cc1	4[16.7 µM]	9
CCCNC(=O)N(C)C[C@@H]1Oc2cc(C3=CCCC3)ccc2S(=O)(=O)N([C@@H](C)CO)C[C@H]1C	9[16.7 µM]	11
COc1cccc(NC(=O)N[C@@H]2C=C[C@@H](CC(=O)N3CCN(C)CC3)O[C@H]2CO)c1	-8[16.7 µM]	-10
N#C[C@@H]1[C@H](c2ccc(C#Cc3ccccc3F)cc2)[C@H](CO)N1C(=O)C1CCOCC1	-33[16.7 µM]	4
CO[C@@H]1CN(C)C(=O)c2cc(NC(=O)c3ccccc3F)ccc2OC[C@@H](C)N(C)C[C@@H]1C	1[16.7 µM]	-15
C[C@@H]1CN([C@@H](C)CO)C(=O)Cc2cc(NC(=O)c3ccncc3)ccc2O[C@H]1CN(C)Cc1ccncc1	4[16.7 µM]	22
C[C@@H]1CN([C@@H](C)CO)C(=O)c2cc(C#Cc3cccc(F)c3)cnc2O[C@H]1CN(C)C(=O)C1CCC1	-2[16.7 µM]	1
CO[C@@H]1CN(C)C(=O)c2ccc(NS(=O)(=O)c3cn(C)cn3)cc2OC[C@@H](C)N(C)C[C@H]1C	7[16.7 µM]	-2
Cc1noc(C)c1NC(=O)Nc1cccc2c1O[C@@H](CN(C)Cc1ccc3c(c1)OCO3)[C@@H](C)CN([C@@H](C)CO)C2=O	11[16.7 µM]	15
C[C@H](CO)N1C[C@H](C)[C@H](CN(C)Cc2ccncc2)Oc2ccc(NC(=O)CCCCCC(=O)Nc3ccccc3N)cc2C1=O	6[16.7 µM]	4
Cc1noc(C)c1NC(=O)N(C)C[C@@H]1Oc2ncc(C#CCN(C)C)cc2C(=O)N([C@@H](C)CO)C[C@H]1C	6[16.7 µM]	7
Cc1ccc(S(=O)(=O)N(C)C[C@@H]2OCCCC[C@H](C)Oc3ccc(NC(=O)CCC(F)(F)F)cc3C(=O)N([C@@H](C)CO)C[C@@H]2C)cc1	-1[16.7 µM]	24
C[C@H]1CN([C@@H](C)CO)C(=O)Cc2cc(NS(=O)(=O)c3ccc(F)cc3)ccc2O[C@H]1CN(C)C	9[16.7 µM]	-5
CCC(=O)N(C)C[C@@H]1Oc2cc(C#CC3CCCCC3)ccc2S(=O)(=O)N([C@@H](C)CO)C[C@H]1C	13[16.7 µM]	-6
CC(C)NC(=O)Nc1ccc2c(c1)C(=O)N([C@@H](C)CO)C[C@H](C)[C@H](CN(C)Cc1ccc(C(=O)O)cc1)O2	-16[16.7 µM]	-10
C[C@@H]1CCCCO[C@@H](CN(C)S(=O)(=O)c2ccc(F)cc2)[C@@H](C)CN([C@H](C)CO)C(=O)c2cc(NC(=O)Nc3ccc(C(F)(F)F)cc3)ccc2O1	8[16.7 µM]	6
COCC#Cc1ccc2c(c1)O[C@H](CN(C)C(=O)Nc1ccccc1F)[C@@H](C)CN([C@H](C)CO)S2(=O)=O	9[16.7 µM]	17
Cc1cccc(CN(C)C[C@@H]2Oc3ncc(-c4ccc(F)cc4)cc3C(=O)N([C@H](C)CO)C[C@@H]2C)c1	1[16.7 µM]	-6
C[C@H]1CCCCO[C@@H](CN(C)Cc2ccncc2)[C@@H](C)CN([C@@H](C)CO)C(=O)c2cc(NS(=O)(=O)c3ccc(F)cc3)ccc2O1	18[16.7 µM]	-7
COCC#Cc1ccc2c(c1)O[C@@H](CN(C)S(C)(=O)=O)[C@@H](C)CN([C@H](C)CO)S2(=O)=O	6[16.7 µM]	7
C[C@@H]1CN([C@@H](C)CO)C(=O)Cc2cc(NS(C)(=O)=O)ccc2O[C@H]1CN(C)CC1CCCCC1	12[16.7 µM]	2
O=C(N[C@@H]1CC[C@H](CC(=O)N2CCOCC2)O[C@@H]1CO)c1ccc2c(c1)OCO2	-5[16.7 µM]	-13
COc1ccc(NC(=O)N(C)C[C@@H]2Oc3c(NC(=O)C4CC4)cccc3C(=O)N([C@@H](C)CO)C[C@H]2C)cc1	-7[16.7 µM]	1
O=C(NCC[C@@H]1CC[C@H](NC(=O)Nc2cc(F)ccc2F)[C@@H](CO)O1)Nc1ccc(Cl)cc1	?	21
C[C@H](CO)N1C[C@H](C)[C@H](CN(C)C(=O)Nc2ccc(F)cc2)OCCCC[C@H](C)Oc2ccc(NC(=O)Nc3ccccc3)cc2C1=O	-35[16.7 µM]	-5
CO[C@@H]1CN(C)C(=O)c2ccc(NC(=O)Nc3ccc(Cl)cc3)cc2OC[C@H](C)N(C)C[C@@H]1C	-7[16.7 µM]	-4
C[C@H]1CN([C@@H](C)CO)C(=O)c2cc(NC(=O)Cc3ccccc3)ccc2O[C@H]1CN(C)Cc1ccc(-c2ccccc2)cc1	-29[16.7 µM]	5
CCC1C(c2ccccc2)=CCC(C(=O)O)C1C (stereo unspecified)	9	0
C[C@H]1CN([C@@H](C)CO)C(=O)Cc2cc(NS(=O)(=O)c3ccc(Cl)cc3)ccc2O[C@@H]1CN(C)Cc1ccc2c(c1)OCO2	18[16.7 µM]	-5
COCCNC(=O)C[C@@H]1CC[C@@H]2[C@H](COc3ccc(NC(=O)C4CCCC4)cc3C(=O)N2C)O1	-9[16.7 µM]	-7
C[C@@H]1CN([C@H](C)CO)C(=O)c2cc(NC(=O)CCN3CCOCC3)ccc2O[C@H]1CN(C)S(=O)(=O)c1cccs1	-11[16.7 µM]	-18
C[C@@H]1CN([C@@H](C)CO)C(=O)c2cccc(NS(C)(=O)=O)c2O[C@H]1CN(C)CC1CC1	24[16.7 µM]	-16
C[C@@H]1CN([C@H](C)CO)C(=O)c2cc(NS(C)(=O)=O)ccc2O[C@@H]1CN(C)Cc1ccc(C(=O)Nc2ccccc2N)cc1	29[16.7 µM]	4
C[C@H](CO)N1C[C@H](C)[C@@H](CN(C)C(=O)C2CCCCC2)OCCCC[C@H](C)Oc2ccc(NC(=O)Nc3ccc(C(F)(F)F)cc3)cc2C1=O	-8[16.7 µM]	-20
C[C@H]1CN([C@@H](C)CO)C(=O)c2cccc(NS(=O)(=O)c3ccc(F)cc3)c2O[C@@H]1CN(C)S(=O)(=O)c1cn(C)cn1	-4[16.7 µM]	-2

(cont.)
SMILES	HIV Env fusion	UUG fidelity
C[C@@H]1CCCCO[C@H](CN(C)C)[C@H](C)CN([C@H](C)CO)C(=O)c2cc(NS(=O)(=O)c3ccc(F)cc3)ccc2O1	-13[16.7 µM]	7
C[C@@H]1CN([C@H](C)CO)C(=O)c2cc(NC(=O)Nc3ccc4c(c3)OCO4)ccc2O[C@H]1CN(C)S(=O)(=O)c1cn(C)cn1	1[16.7 µM]	1
C/C=C/c1ccc2c(c1)O[C@@H](CN(C)C(=O)NC1CCCCC1)[C@H](C)CN([C@H](C)CO)S2(=O)=O	-1[16.7 µM]	3
COCC#Cc1cnc2c(c1)C(=O)N([C@H](C)CO)C[C@H](C)[C@H](CN(C)C(=O)c1cccnc1)O2	-10[16.7 µM]	-7
COC(=O)C[C@H]1CC[C@H]2[C@H](COc3ccc(NC(=O)NCc4ccccc4)cc3C(=O)N2C)O1	0[16.7 µM]	26
Cc1ccc(S(=O)(=O)N(C)C[C@@H]2OCCCC[C@H](C)Oc3ccc(NC(=O)c4ccncc4)cc3C(=O)N([C@H](C)CO)C[C@@H]2C)cc1	-28[16.7 µM]	-12
C[C@H]1CN([C@@H](C)CO)C(=O)c2cccc(NC(=O)c3ccc(-c4nccs4)cc3)c2O[C@@H]1CN(C)Cc1ccc(C(=O)Nc2ccccc2N)cc1	-31[16.7 µM]	5
COc1cccc(NC(=O)C[C@@H]2CC[C@@H]3[C@H](COc4ccc(NC(C)=O)cc4C(=O)N3C)O2)c1	-1[16.7 µM]	3

Some of these compounds in order of SMILES length, rising.
SMILES	HIV Env fusion	UUG fidelity
CCCNC(=O)N(C)C[C@H]1Oc2ncc(C3=CCCCC3)cc2C(=O)N([C@@H](C)CO)C[C@@H]1C	2[16.7 µM]	16
COc1cccc(NC(=O)C[C@@H]2CC[C@@H]3[C@H](COc4ccc(NC(C)=O)cc4C(=O)N3C)O2)c1	-1[16.7 µM]	3
C[C@@H]1CN([C@@H](C)CO)C(=O)c2cc(C#Cc3cccc(F)c3)cnc2O[C@H]1CN(C)C(=O)C1CCC1	-2[16.7 µM]	1
CC(C)NC(=O)Nc1ccc2c(c1)C(=O)N([C@@H](C)CO)C[C@H](C)[C@H](CN(C)Cc1ccc(C(=O)O)cc1)O2	-16[16.7 µM]	-10
COC(=O)c1ccc([C@@H]2C=C(C(=O)N3CCN(Cc4ccc5c(c4)OCO5)CC3)O[C@H](OCc3ccc(CO)cc3)C2)cc1	4[16.7 µM]	9
Cc1noc(C)c1NC(=O)Nc1cccc2c1O[C@@H](CN(C)Cc1ccc3c(c1)OCO3)[C@@H](C)CN([C@@H](C)CO)C2=O	11[16.7 µM]	15
C[C@H]1CN([C@@H](C)CO)C(=O)c2cccc(NS(=O)(=O)c3ccc(F)cc3)c2O[C@@H]1CN(C)S(=O)(=O)c1cn(C)cn1	-4[16.7 µM]	-2
Cc1ccc(S(=O)(=O)N(C)C[C@@H]2OCCCC[C@H](C)Oc3ccc(NC(=O)c4ccncc4)cc3C(=O)N([C@H](C)CO)C[C@@H]2C)cc1	-28[16.7 µM]	-12
C[C@H]1CN([C@@H](C)CO)C(=O)c2cccc(NC(=O)c3ccc(-c4nccs4)cc3)c2O[C@@H]1CN(C)Cc1ccc(C(=O)Nc2ccccc2N)cc1	-31[16.7 µM]	5
C[C@@H]1CCCCO[C@@H](CN(C)S(=O)(=O)c2ccc(F)cc2)[C@@H](C)CN([C@H](C)CO)C(=O)c2cc(NC(=O)Nc3ccc(C(F)(F)F)cc3)ccc2O1	8[16.7 µM]	6
